BJeLR lethal = kills HRASV12-expressing BJeLR cells. BJeLR (HRASV12) viability, CellTiter-Glo ATP luminescence, 48 h; reference of the scale not given here. 0.17% of 300,000 active. inhibition, % (no concentration beside the values). AID 1554;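 active = replicate mean above 50%; inconclusive = above 50% but judged a plate artefact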;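 note: 50 nL library stock added to about 25 µL; numbers are from one replicate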
Mtb hypoxia rep = inhibitors of hypoxia-regulated fluorescent reporter in Mycobacterium tuberculosis; M. tuberculosis hypoxia-regulated fluorescent reporter, fluorescence; fluorescence inhibition, % (no concentration beside the values); 0.1% of 300,000 active;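 active = 35 to 45% if threefold the growth effect, above 45% if 1.5-fold the growth effect; inactive = the rest, general growth blockers included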;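 note: wells of about 50 µL received 100 nL stock; 0% = vehicle wells and 100% = reference inhibitor wells; whole bacteria with a GFP reporter of the hypoxia response; strong numbers were not always called active; many hits fall short of the cut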
PrP UTR inh = suppresses PrP 5' UTR mRNA reporter expression. cell-based PrP 5' UTR mRNA reporter, plate reader. inhibition, % (no concentration beside the values). 0.35% of 340,000 active;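 active = every replicate at 50% or more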;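 note: 0 = median of the neutral control wells; tested in H4 reporter cells; numbers are from one replicate; inactives centre near -14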
Sa ugtP lethal = growth inhibition of S. aureus ugtP deletion strain; AID 1259309; 0.54% of 330,000 active; S. aureus RN4220 ugtP deletion, OD600 growth, 16 h; some inactives read as strong as hits; growth inhibition, % (concentration not given with the values);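 active = z-score under -3 and OD600 up to 0.15 on both plates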;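 note: plate controls were untreated wells for no effect and antibiotic for full effect; wells of about 80 µL received 100 nL stock; the first replicate is given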
RN4220 kill = S. aureus RN4220 growth inhibition. OD600, 16 h. inhibition, % (concentration not given with the values). 0.33% of 330,000 active;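 active = z-score of -3 or lower and OD600 up to 0.18 on both plates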;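 note: plate controls were untreated cells for no effect and reference antibiotic for full effect; stock transfer was 100 nL into about 80 µL; one replicate is shown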
Bead autofluor = counter-screen for toxin protease inhibitors: compound fluorescence | AID 624483 | 3.1% of 360,000 active | compound autofluorescence counterscreen, microsphere flow cytometry; active compounds read high | fluorescence intensity (test concentration not listed);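 active = at least 3 SD above the mean of all compounds, about 16000 in these data; inconclusive = too few beads counted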;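 note: 100 nL of 1 mM stock went into each well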
Mtb hypoxia rep growth = further read-out of Mtb hypoxia rep, marked with its call; growth inhibition, %; measured here: M. tuberculosis growth (absorbance);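 0% = vehicle and 100% = reference antibiotic; read after six days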
* hit, by the source's call; ? = inconclusive; . = not tested or not shown. This is a random part of the collection; about 4% have a hit in one of these screens.

Below each SMILES: BJeLR lethal	Mtb hypoxia rep	Mtb hypoxia rep growth	PrP UTR inh	Sa ugtP lethal	RN4220 kill	Bead autofluor
1. CC(NC(=O)c1ccc(NC(=O)c2ccco2)cc1)c1ccccc1 (configuration not stated)
  -1.2	5.3	12.2	10.5	-2.1	-1.0	5723
2. CCc1ccc(OCC(=O)Nc2ncc3c(n2)CC(C)(C)CC3=O)cc1
  0.8	5.9	-1.8	17.8	9.8	2.8	8514
3. CCCn1cc(S(=O)(=O)c2ccccc2)c(=O)c2cc(OCC)ccc21
  -20.7	-11.8	-8.3	12.4	11.9	4.6	5585
4. O=C(NCCCN1CCOCC1)c1cc(-c2ccccc2)nc2ccccc12
  3.3	7.0	2.9	-16.7	8.1	3.5	5546
5. COc1ccc([C@H]2CC(=O)C=C(c3cc4ccccc4s3)C2)cc1
  .	2.7	6.6	-30.4	-1.3	-9.0	3584
6. COc1ccc(-c2c(C#N)c(N)nc3sc(C(=O)c4ccccc4)c(N)c23)cc1
  -16.3	-2.1	10.7	-12.4	-4.5	0.2	2561
7. O=C(O)C(Cc1c[nH]c2ccccc12)NS(=O)(=O)c1ccc(Br)cc1 (configuration not stated)
  2.2	10.5	5.1	.	11.4	1.6	3875
8. O=C(NCc1n[nH]c(=S)n1-c1ccc(F)cc1)c1ccc(S(=O)(=O)N2CCCC2)cc1
  -9.6	18.0	6.1	-5.9	1.5	7.3	8717
9. COc1ccc(C)cc1-n1ccn(CC(=O)Nc2ccc(Br)cc2F)c(=O)c1=O
  -3.8	2.2	0.5	-5.8	5.0	1.1	?
10. CN(CC(=O)Nc1cccc(F)c1)C(=O)c1ccc(OCc2ccccc2)cc1
  .	5.5	5.8	-10.1	-0.3	0.5	8672
11. O=C(Nc1ccccc1)Nc1ccc(F)cc1F
  8.9	9.7	6.2	-72.5	-12.0	4.8	2449
12. O=C(COC(=O)/C=C/c1ccc(F)cc1)Nc1ccc(S(=O)(=O)N2CCOCC2)cc1
  .	7.6	4.2	-19.1	5.5	-0.7	7820
13. O=C(N/N=C\c1ccccc1OCc1ccccc1)c1ccco1
  -0.2	.	.	-17.6	.	.	2079
14. CN(C)CCN(C(=O)c1ccc2ccccc2c1)c1nc2cc3c(cc2s1)OCCO3
  -5.0	2.6	3.9	-21.0	5.4	4.6	5908
15. CN(C(=O)CSc1nnc(-c2cccc(F)c2)n1N)C1CCS(=O)(=O)C1 (configuration not stated)
  4.3	0.9	1.5	-11.6	9.1	-0.7	3735
16. CN(C)c1ccc(C(=O)N2CCCC(CCC(=O)N3CCN(c4ccccn4)CC3)C2)cc1 (configuration not stated)
  -5.0	-6.7	-1.6	8.2	3.8	1.9	6387
17. O=P(c1ccccc1)(c1ccccc1)c1cc(Br)cc(Br)c1OCCO
  -12.1	1.5	-6.8	10.5	13.0	-0.5	3151
18. CCOc1ccc(NC(=O)CSc2nc(=O)n(Cc3ccccn3)c3c2CCC3)cc1
  -0.9	6.2	2.4	-12.5	15.4	1.7	5528
19. CCN(CC)c1ccc(/C=C(\C#N)c2ccccn2)cc1
  16.1	.	.	-11.3	.	.	2914
20. O=c1[nH]c(CSc2nc3ccccc3s2)nc2cc(Cl)ccc12
  2.1	-2.5	1.2	.	0.5	-4.5	.

Copied from the list:
COc1ccc(-c2c(C#N)c(N)nc3sc(C(=O)c4ccccc4)c(N)c23)cc1 in Sa ugtP lethal is listed with -4.5
CCN(CC)c1ccc(/C=C(\C#N)c2ccccn2)cc1 in BJeLR lethal is listed with 16.1
CC(NC(=O)c1ccc(NC(=O)c2ccco2)cc1)c1ccccc1 (configuration not stated) in RN4220 kill is listed with -1.0
COc1ccc(C)cc1-n1ccn(CC(=O)Nc2ccc(Br)cc2F)c(=O)c1=O in Mtb hypoxia rep is listed with 2.2

The listing continues.
Below each SMILES: BJeLR lethal	Mtb hypoxia rep	Mtb hypoxia rep growth	PrP UTR inh	Sa ugtP lethal	RN4220 kill	Bead autofluor
21. Cc1ccc(S(=O)(=O)NCCc2nnc(SCc3cccnc3)n2C)cc1
  -4.2	3.9	2.6	-18.2	9.7	-1.6	5125
22. COc1ccc(-c2nc3cc(C)ccn3c2NCc2ccc3c(c2)OCO3)cc1
  2.7	-6.2	-11.5	2.2	4.0	-1.0	3522
23. CCOc1cc(/C=N/n2cnnc2)ccc1OC(=O)c1cccc([N+](=O)[O-])c1
  1.7	.	.	1.0	.	.	3340
24. COc1ccc(OC)c(NC2=NCCS2)c1
  3.5	9.2	-3.1	1.7	4.5	7.4	4081
25. CC(=O)OC1CC[C@@]2(C)C(CCC3C2CC[C@@]2(C)C3CC2C(C)(C)O)C1 (some centres not stated)
  .	4.4	12.3	.	22.7	-0.3	.
26. CCC(=O)c1ccc(OCC(O)CN(CCc2ccccc2)Cc2ccccc2)cc1 (configuration not stated)
  1.4	9.2	1.0	-2.6	8.6	2.2	7560
27. CCC(CC)NC(=O)/C=C/c1ccccc1Cl
  -1.0	9.6	-5.0	-55.4	-5.7	4.4	2114
28. Cc1c(N=Nc2c(O)n(-c3ccc(Br)cc3)c(=O)[nH]c2=O)c(=O)n(-c2ccccc2)n1C
  -4.5	0.4	0.5	-13.7	0.5	2.3	.
29. c1ccc(CN2CCN(c3cnc4ccccc4n3)CC2)cc1
  1.5	18.4	6.1	-35.2	9.5	3.5	4654
30. Cc1ccc(S(=O)(=O)Nc2ccc(Oc3cccnc3)nc2)cc1
  -0.7	17.2	11.4	-9.0	4.6	1.2	5740
31. COC(=O)Cc1[nH]n(-c2nc3ccccc3s2)c(=O)c1C(C)=O
  2.9	2.4	16.6	-1.1	4.8	4.4	?
32. COCc1ccc(C(=O)N(C)CC2CCCN(CCc3ccc(OC)cc3)C2)o1 (configuration not stated)
  -3.3	1.0	-4.6	-43.6	3.5	3.0	5971
33. Cc1cccc(NC(=O)c2cc(N3CCOCC3)nc3ccccc23)c1
  3.9	-1.4	6.3	-7.9	4.1	1.4	3585
34. COc1cc(C)c(CN2CCN(C(C)C(=O)NC(C)c3ccccc3)CC2)cc1OC (configuration not stated)
  3.3	-1.5	-7.3	-13.3	4.0	1.8	6030
35. C/C(C=NNC(=O)CSc1nnc(SCc2ccccc2)s1)=C\c1ccco1
  .	-4.7	7.8	.	-13.3	0.3	.
36. COc1ccc2cc(-c3ccccc3)ncc2c1
  20.5	5.5	7.2	-30.6	14.7	12.4	4086
37. CN1CCc2nc3sc(C(=O)C45CC6CC(CC(C6)C4)C5)c(N)c3cc2C1
  .	.	.	-1.4	-19.9	0.3	3396
38. CC1Cc2cc(S(=O)(=O)N3CCC(C(=O)N4CCN(c5ccccc5F)CC4)CC3)ccc2N1C(=O)C1CC1 (configuration not stated)
  -8.0	13.3	4.3	2.9	1.9	0.6	4133
39. NC(=O)c1ccccc1NCC(=O)c1ccc(F)cc1
  4.5	6.3	-13.8	-27.1	8.2	3.2	3543
40. Cc1ccn(CCC(=O)Nc2ccc3c(c2)OCO3)n1
  -19.0	10.1	0.4	-14.6	-2.3	3.7	5493
41. Cc1cccc(NC(=O)CN(CC2CCCO2)C(=O)c2cc(S(=O)(=O)N(C)C)ccc2F)c1C (configuration not stated)
  .	14.0	10.3	-30.3	7.2	3.6	3665
42. O=C(COc1ccc(Br)cc1)c1ccc2c(c1)CCCC2
  -13.1	1.7	2.9	-7.4	14.8	3.9	2496
43. O=C(Nc1ccccc1)N1CCN(c2ccc(F)cc2)CC1
  4.0	.	.	-19.6	2.5	0.4	3890
44. O=[N+]([O-])c1ccc2nc(NS(=O)(=O)c3ccc(F)cc3)sc2c1
  -9.0	-13.1	7.6	-6.7	-8.2	3.2	3719
45. Cc1ccc([N+](=O)[O-])cc1-c1ccc(/C=N\n2nnnc2N)o1
  0.2	.	.	3.3	.	.	2488
46. COC(=O)c1ccc(NC(=O)C(=O)NCC2CCCO2)cc1 (configuration not stated)
  -1.8	-10.4	6.7	-36.7	10.6	-2.2	2092
47. O=C(Nc1ccc2c(c1)OCCO2)c1ccc(Cl)cc1Cl
  -5.4	8.2	5.5	-11.9	7.2	1.8	3012
48. CS(=O)(=O)N(CC(=O)NCc1ccccn1)Cc1ccc(Cl)cc1
  -4.1	.	.	-15.1	-5.9	-2.9	4276
49. Cn1nc(C(F)(F)F)cc1C(=O)NC1CCCCCC1
  -3.4	.	.	-21.9	-2.9	8.3	9264
50. O=C(COC(=O)c1ccc(O)cc1)Nc1ccc(Cl)cc1
  -2.3	4.2	10.0	.	1.9	7.3	.
51. CCOc1ccc(-c2c(C(=O)N/N=C/c3ccc(C)s3)nnn2-c2nonc2N)cc1
  -2.9	.	.	6.1	.	.	4648
52. CC(=O)c1cc2c(cc1NC(=O)c1ccc(Cl)cc1)OCCO2
  -3.6	3.5	-2.5	-14.4	-1.8	-4.0	4152
53. Cc1ccc(NC(=O)c2ccc(S(=O)(=O)N3CCOCC3)cc2)c(C)c1
  8.1	-0.6	2.1	-8.8	2.8	3.9	4207
54. Cc1nn(Cc2ccccc2)c2c1C(c1cccc(Cl)c1)C(C#N)=C(N)O2 (configuration not stated)
  1.5	16.3	7.2	-28.3	-3.3	13.1	2466
55. NS(=O)(=O)c1ccc(NC(=O)COC(=O)c2cnc(Cl)c(Cl)c2)cc1
  1.0	12.7	5.0	-18.4	-0.7	1.1	5315
56. CC1=CN(S(=O)(=O)c2ccc(C)cc2)C[C@@H]2[C@H]3CC[C@H](C3)[C@H]12
  .	-3.4	-6.3	44.5	25.2	4.6	3667
57. CCN(CC)CCCNC(=O)C(C)Sc1nc(-c2ccccc2)cc(C(F)(F)F)n1 (configuration not stated)
  3.1	16.5	5.9	-15.0	6.2	0.8	5410
58. CC(OC(=O)CN1C(=O)c2ccccc2C1=O)C(=O)NCc1ccccc1 (configuration not stated)
  12.8	-6.1	-1.1	-3.2	-3.5	-3.0	5074
59. CC(=O)C1=C(C)N(Cc2ccco2)C(=O)C1(NC(=O)C1CCCCC1)C(F)(F)F (configuration not stated)
  1.1	-0.9	2.9	-4.7	-1.6	2.1	15634
60. COC(=O)c1c(NC(=O)CN2CCCC(C)C2)c2c(C)cccc2n1C (configuration not stated)
  -5.6	.	.	-4.9	3.4	4.1	2205
61. COc1ccc(CN2CCSCC2)c(C)c1C
  4.5	16.4	8.0	-14.3	8.9	2.9	3424
62. CC(C)(C)C1CCC(OC(=O)CN2CCCCC2)CC1 (configuration not stated)
  0.9	6.7	-9.4	-87.3	9.0	5.5	4311
63. CC(C)NS(=O)(=O)c1ccc(OCC(=O)Nc2ccc(F)cc2)cc1
  -1.1	9.5	0.5	-13.8	8.1	2.6	4711
64. CCN(Cc1ccccc1)C(c1cccs1)c1nnnn1C1CCCCC1 (configuration not stated)
  -7.2	15.0	15.9	-7.8	-27.0	7.7	7921
65. O=C1OC(CCl)CN1Cc1c(Cl)cccc1Cl (configuration not stated)
  -2.3	14.0	15.4	-15.3	4.4	2.9	.
66. c1ccc(-c2noc(-c3cccs3)n2)nc1
  23.5	7.3	1.8	2.2	-0.1	5.8	6222
67. O=C(Nc1cccc(C(F)(F)F)c1)c1cc(-c2ccc(F)cc2)on1
  0.3	3.9	2.3	-7.8	-11.1	4.1	10417
68. COc1ccc(OCC(O)Cn2c(=N)n(Cc3ccccc3)c3ccccc32)cc1 (configuration not stated)
  -2.1	-5.5	-0.8	-7.4	-24.9	-5.3	9484
69. O=C(CSc1nc2ccccc2s1)NCCOc1ccc(Cl)cc1
  -4.9	-9.1	0.9	4.5	6.8	-8.1	4381
70. CC1CN(C(NC(=O)C(C)(C)C)C(Cl)(Cl)Cl)CC(C)O1 (configuration not stated)
  5.5	.	.	-13.7	5.2	2.8	4249
71. Cc1ccc(N2C(=O)c3ccc(C(=O)N4CCOCC4)cc3C2=O)cc1C
  2.9	-3.8	-1.2	4.8	-0.3	-0.6	10805
72. O=C(Nc1cc(S(=O)(=O)N2CCOCC2)ccc1O)c1ccc(NS(=O)(=O)c2ccc(Cl)s2)cc1
  10.6	7.9	-2.6	-0.8	1.8	3.6	2013
73. Cc1cnc(C(=O)OCC(=O)NC(C)CCc2ccccc2)cn1 (configuration not stated)
  -0.8	-1.4	8.3	-21.2	2.4	6.7	2641

Limited to Bead autofluor and Mtb hypoxia rep growth (two entries from above):
nr	molecule	Bead autofluor	Mtb hypoxia rep growth
66	c1ccc(-c2noc(-c3cccs3)n2)nc1	6222	1.8
67	O=C(Nc1cccc(C(F)(F)F)c1)c1cc(-c2ccc(F)cc2)on1	10417	2.3
